NPR1 antag: Natriuretic polypeptide receptor (hNpr1) antagonism - Primary qHTS | AID 1347048, 2019 | Atrial natriuretic peptide receptor 1 (Homo sapiens), P16066 | Potency, µM (series often up to 46.3 µM), for inactives: at the highest dose activity change, negative = inhibition, hits mostly inhibitors | HEK293 hNpr1 GloSensor cGMP, ANP-stimulated luminescence | 76,000 tested, 1.6% active; active = well fitted inhibition curve with a large enough effect; inconclusive = small, poorly fitted or top-dose-only effect; inactive = no such curve, though single readings can be large or run the other way;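 also: nearly all actives have a fitted effect of over 60% in size; nearly all hits also lower the signal before the agonist is added; a reference antagonist and vehicle were the controls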
Target sequence (P16066 whole entry, looked up): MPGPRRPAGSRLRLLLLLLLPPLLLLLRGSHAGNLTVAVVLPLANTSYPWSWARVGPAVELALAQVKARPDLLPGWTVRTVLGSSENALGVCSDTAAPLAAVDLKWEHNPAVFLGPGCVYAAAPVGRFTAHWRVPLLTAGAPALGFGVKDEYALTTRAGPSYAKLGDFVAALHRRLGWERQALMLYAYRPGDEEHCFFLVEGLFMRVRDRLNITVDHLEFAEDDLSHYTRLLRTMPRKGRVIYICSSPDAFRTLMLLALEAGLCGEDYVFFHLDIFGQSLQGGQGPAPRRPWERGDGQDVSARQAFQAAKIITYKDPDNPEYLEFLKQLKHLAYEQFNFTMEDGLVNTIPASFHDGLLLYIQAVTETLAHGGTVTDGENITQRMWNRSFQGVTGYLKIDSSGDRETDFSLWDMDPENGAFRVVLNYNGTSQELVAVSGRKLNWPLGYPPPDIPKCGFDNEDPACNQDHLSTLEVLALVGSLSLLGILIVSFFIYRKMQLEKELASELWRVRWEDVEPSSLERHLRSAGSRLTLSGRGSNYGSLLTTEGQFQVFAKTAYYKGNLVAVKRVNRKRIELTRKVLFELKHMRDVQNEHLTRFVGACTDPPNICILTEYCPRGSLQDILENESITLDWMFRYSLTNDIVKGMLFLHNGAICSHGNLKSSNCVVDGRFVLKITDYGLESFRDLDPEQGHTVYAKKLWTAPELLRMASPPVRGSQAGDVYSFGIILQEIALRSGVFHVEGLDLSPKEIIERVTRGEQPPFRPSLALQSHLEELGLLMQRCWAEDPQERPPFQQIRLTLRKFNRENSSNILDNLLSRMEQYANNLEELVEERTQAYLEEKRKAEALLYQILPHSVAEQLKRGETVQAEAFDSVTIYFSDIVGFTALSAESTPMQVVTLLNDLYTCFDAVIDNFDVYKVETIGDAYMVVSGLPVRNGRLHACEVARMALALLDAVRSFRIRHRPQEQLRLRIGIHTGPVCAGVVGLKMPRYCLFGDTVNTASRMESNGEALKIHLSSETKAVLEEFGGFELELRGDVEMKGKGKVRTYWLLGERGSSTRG
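HEK293 cells stably expressing human Npr1 and cGMP GloSensor pGS-40F, loaded 2 h with 2% GloSensor reagent, given compound 30 min at room temperature. Luminescence read before and 20 min after 0.1 nM hNppA.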
The depositor's hits bear a star; u = inconclusive; [ ] = another dose, or the depositor's remark. % is scaled to controls: 0 for no effect and ±100 for the full control effect; potency is read from the fitted curve at half-maximal effect. An excerpt; rates above refer to the full screens.

Compound | NPR1 antag
COc1ccc(-c2cn(C[C@H]3C[C@@H]4CCN3C[C@@H]4C(=O)N(C)C)nn2)cc1 | 4%[70.6 µM]
COc1cc2c(cc1CCc1ccccc1)N(C(=O)CC(C)C)CC21CCN(C(C)=O)CC1 | 2%
CCNC(=O)N1[C@H]2CC[C@@H]1c1cnc(-c3ccccc3)nc1C2 | 6%
COc1ccc(CNC[C@H]2C[C@@H]3CCN2C[C@@H]3c2cc(C3CCCC3)nn2C)cc1 | 6%[70.6 µM]
CS(=O)(=O)N1C[C@@H]2C[C@H](C1)c1ccc(NC(=O)c3ccncc3)c(=O)n1C2 | 11%[70.6 µM]
O=C1OCC2(CCN(Cc3ccccn3)C2)N1c1ccncc1 (configuration not stated) | -2%[70.6 µM]
CN1Cc2ccccc2-n2ccnc2C12CCN(C(=O)c1cccc(C(F)(F)F)c1)CC2 | 1%
O=C(C1CCOCC1)N1CCC2(CC1)NCc1ccccc1-n1ccnc12 | 5%
O=C1N(Cc2ccccn2)C[C@H]2CN(Cc3nccs3)CCN12 | -2%[70.6 µM]
O=C(c1ccsc1)N1[C@H]2CC[C@@H]1c1cnc(-c3ccccc3)nc1C2 | u
CCC(CC)c1cc([C@H]2CN3CC[C@H]2C[C@@H]3CNC(=O)COc2ccccc2)nc(-c2ccncc2)n1 | 11µM*
Cc1nc(-c2ccc(C(F)(F)F)cc2)cc([C@H]2CN3CC[C@H]2C[C@@H]3CNC(=O)C2CC2)n1 | 3%
C#CCN(C)C[C@H]1CN2CC[C@H]1C[C@@H]2CNS(=O)(=O)c1cccs1 | 5%[70.6 µM]
O=C(c1cncnc1)N1C[C@@H]2C[C@H](C1)c1c(-c3ccc4ccccc4c3)ccc(=O)n1C2 | -6%[70.6 µM]
Cc1nc(-c2ccccc2Br)cc([C@H]2CN3CC[C@H]2C[C@@H]3CNC(=O)C2CC2)n1 | 5%
COCC(=O)NC1CCC12CCNCC2 (configuration not stated) | 1%
c1ccc(-c2ncc3c(n2)C[C@@H]2CC[C@H]3N2)cc1 | -3%
COCCN1CCN(C(=O)C2C(C)(C)C2(C)C)[C@H]2CS(=O)(=O)C[C@H]21 | 7%
Cc1nc(-c2ccccc2)cc([C@H]2CN3CC[C@H]2C[C@@H]3CNC2CCOCC2)n1 | 3%[70.6 µM]
C#C[C@H]1CN2CC[C@H]1C[C@@H]2CNS(=O)(=O)c1cccc(C#N)c1 | 0%[70.6 µM]
COc1ccc2c(c1)C1(CCN(C(=O)c3cccc(F)c3)C1)C(=O)N2C (configuration not stated) | -1%
O=C1NC2(CN(Cc3ccccn3)C2)Oc2ccccc21 | 0%[70.6 µM]
CSc1cccc(NC(=O)NC[C@H]2C[C@@H]3CCN2C[C@@H]3CN(C)Cc2ccccc2)c1 | -1%
COc1ccc(OC)c(S(=O)(=O)N2[C@H]3CC[C@@H]2c2cnc(-c4ccccc4)nc2C3)c1 | 1%
COc1cc2c(cc1OCc1ccccc1)NC(=O)C21CCN(c2ccnc(C)n2)CC1 | u
COc1cc2c(cc1OCc1ccccc1)N(C(=O)c1cccc3[nH]ccc13)CC21CCN(C)CC1 | 1%
CN1Cc2ccccc2-n2ccnc2C12CCN(C(=O)c1cc(F)cc(F)c1)CC2 | -3%
Cn1nc(-c2ccc3ccccc3c2)cc1[C@H]1CN2CC[C@H]1C[C@@H]2CNC(=O)Nc1cccc(C#N)c1 | 4%
CN(C)C(=O)CC1CCOC2(CCNCC2)C1 (configuration not stated) | 4%
COc1ccc(CNC[C@H]2C[C@@H]3CCN2C[C@@H]3c2cc(-c3ccc(F)cc3)nn2C)cc1 | 1%[70.6 µM]
O=C1CS(=O)C2(CCNCC2)N1C1CCCC1 (configuration not stated) | 1%
CCn1cc(CN2CCN(C(=O)COc3ccccc3)CC2)ccc1=O | -1%
O=C1CO[C@H]2CN(Cc3ncc[nH]3)C[C@H]2N1Cc1ccncc1 | 1%[70.6 µM]
CCCCc1cn(C[C@H]2CC3CCN2C[C@@H]3C(=O)NCc2ccccc2)nn1 (some centres not stated) | 0%[70.6 µM]
O=C(Nc1ccccc1)[C@H]1CN2CC[C@H]1C[C@@H]2Cn1cc(CC2CCCCC2)nn1 | -4%[70.6 µM]
CCS(=O)(=O)N1[C@H]2CC[C@@H]1c1cnc(-c3ccc(F)cc3)nc1C2 | u
CC[C@H]1CN2CC[C@H]1C[C@@H]2CNC(=O)Nc1ccc(Br)cc1 | 7%[70.6 µM]
Cc1ccc(C(=O)NC[C@H]2C[C@@H]3CCN2C[C@@H]3c2cc(-c3ccccc3)nn2C)cc1 | 5%[70.6 µM]
CN(C)c1ccc(C(=O)NC[C@H]2C[C@@H]3CCN2C[C@@H]3CN2CCOCC2)cc1 | 1%[70.6 µM]
CCn1cc(CN2CCN(C(=O)Cc3ccsc3)CC2)ccc1=O | 1%

Molecules from the list above that contain bromine:
Compound | NPR1 antag
Cc1nc(-c2ccccc2Br)cc([C@H]2CN3CC[C@H]2C[C@@H]3CNC(=O)C2CC2)n1 | 5%
CC[C@H]1CN2CC[C@H]1C[C@@H]2CNC(=O)Nc1ccc(Br)cc1 | 7%[70.6 µM]

Continuation.
Compound | NPR1 antag
O=C(c1ccccc1)N1C[C@@H]2C[C@H](C1)c1c(/C=C/c3ccc(Cl)cc3)ccc(=O)n1C2 | 1%[70.6 µM]
O=C(c1ccc2c(c1)OCO2)N1[C@H]2CC[C@@H]1c1cnc(-c3ccccc3)nc1C2 | u
Cc1cc(C)n(CC(=O)N2[C@H]3CC[C@@H]2c2cnc(-c4ccc(F)cc4)nc2C3)n1 | 10%
COCCN1C[C@H]2CN(Cc3ccncc3F)CCN2C1=O | -1%[70.6 µM]
CCNC(=O)N1[C@H]2CC[C@@H]1c1cnc(-c3ccc(F)cc3)nc1C2 | -24%
C=C[C@H]1CN2CC[C@H]1C[C@@H]2CNC(=O)c1cc(OC)c(OC)c(OC)c1 | 3%[70.6 µM]
O=C(Cn1c(=O)oc2ccccc21)N1[C@H]2CC[C@@H]1c1cnc(-c3ccc(F)cc3)nc1C2 | -12%
O=C(COc1ccccc1)N1[C@H]2CC[C@@H]1c1cnc(-c3ccc(F)cc3)nc1C2 | u
CN1Cc2ccccc2-n2ccnc2C12CCN(C(=O)C1CCC1)CC2 | 6%
COc1ccc(OC)c(-c2cnc3[nH]cc(CC(=O)N4CCN(C)CC4)c3c2)c1 | -21%[70.6 µM]
O=C(NC1CC1)[C@H]1CN2CC[C@H]1C[C@@H]2Cn1cc(-c2ccc(-c3ccccc3)cc2)nn1 | 7%[70.6 µM]
C#CCN(C)C[C@H]1CN2CC[C@H]1C[C@@H]2CNC(=O)NC(C)C | 2%[70.6 µM]
CCNC(=O)NC[C@H]1C[C@@H]2CCN1C[C@@H]2c1cc(-c2cccs2)nn1C | 1%[70.6 µM]
Cc1ncc2c(n1)C[C@@H]1CC[C@H]2N1C(=O)COc1ccccc1 | 1%
Cc1ccccc1-c1ccc2n(c1=O)C[C@H]1C[C@@H]2CN(C(=O)c2cccs2)C1 | 5%[70.6 µM]
O=C(C1CCCCC1)N1C[C@@H]2C[C@H](C1)c1ccc(C3CCCCC3)c(=O)n1C2 | 5%[70.6 µM]
COc1cc2c(cc1OCc1ccccc1)NC(=O)C21CCN(C(=O)c2cccnc2)CC1 | u
O=C(Nc1ccc(=O)n2c1[C@@H]1C[C@@H](CN(S(=O)(=O)c3ccccc3)C1)C2)c1ccco1 | -2%
COc1cc2c(cc1OC1CCCC1)NC(=O)C21CCN(Cc2ccncc2)CC1 | -6%[70.6 µM]
CSc1cccc(NC(=O)NC[C@H]2C[C@@H]3CCN2C[C@@H]3CN2CCN(c3ncccn3)CC2)c1 | 4%
Cn1nc(-c2cccs2)cc1[C@H]1CN2CC[C@H]1C[C@@H]2COC(=O)Nc1ccccc1 | -16%[70.6 µM]
COc1cc2c(cc1Oc1cccc(N(C)C)c1)NC(=O)C21CCN(c2ncccn2)CC1 | u
COc1cccc([C@H]2CN(C(=O)OCC(C)C)[C@@H]3C4CCN(CC4)[C@H]23)c1 | -1%
COc1cc2c(cc1Oc1ccccc1)NC(=O)C21CCN(Cc2ccccn2)CC1 | -17%[70.6 µM]
CC(=O)c1ccc(NC(=O)NC[C@H]2C[C@@H]3CCN2C[C@@H]3CN2CCN(c3ncccn3)CC2)cc1 | 5%
O=C1CO[C@H]2CN(Cc3ccco3)C[C@H]2N1Cc1ccccn1 | 2%[70.6 µM]
O=C(NC1CCCCC1)[C@H]1CN2CCC1C[C@@H]2Cn1cc(CO)nn1 (some centres not stated) | 1%[70.6 µM]
CC(=O)NCCNC(=O)[C@H]1CN2CCC1C[C@@H]2Cn1cc(C(C)(C)C)nn1 (some centres not stated) | 2%[70.6 µM]
CC(C)CN1CCN(c2ccc(Cl)nn2)C(=O)C1 | 0%[70.6 µM]
COCC1(CNC2CCN(C)CC2)C[C@@H](O)[C@@H](O)C1 (some centres not stated) | 4%[70.6 µM]
COc1ccc(NC(=O)N2[C@H]3CC[C@@H]2c2cnc(-c4ccc(F)cc4)nc2C3)cc1OC | u
O=C1Nc2ccccc2CC12CCN(Cc1ccccn1)C2 (configuration not stated) | -2%[70.6 µM]
O=C(NCc1cccnc1)[C@H]1CN2CC[C@H]1C[C@@H]2Cn1cc(-c2ccccc2)nn1 | 0%[70.6 µM]
COc1cncc(-c2cc3c(cc2OC)C2(CCN(C(C)=O)CC2)C(=O)N3)c1 | 0%[70.6 µM]
CC[C@H]1CN2CC[C@H]1C[C@@H]2CNS(=O)(=O)c1ccccc1 | 0%[70.6 µM]
Cn1nc(C2CCCC2)cc1[C@H]1CN2CC[C@H]1C[C@@H]2CNC(=O)Nc1ccccc1 | 6%[70.6 µM]
COc1ccc(-c2cc([C@H]3CN4CC[C@H]3C[C@@H]4CNC(=O)C(C)(C)C)n(C)n2)cc1OC | 6%
CC(C)CCN1CCC(N2CCN(C(=O)Cc3ccccc3F)CC2)C1=O (configuration not stated) | -1%
COCc1cn(C[C@H]2CC3CCN2C[C@@H]3C(=O)NCc2ccc3c(c2)OCO3)nn1 (some centres not stated) | -2%[70.6 µM]
COc1ccc(-c2cc([C@H]3CN4CC[C@H]3C[C@@H]4CNC(=O)C3CC3)n(C)n2)cc1OC | -4%[70.6 µM]

Entries above with a thiophene ring, fused or not:
Compound | NPR1 antag
O=C(c1ccsc1)N1[C@H]2CC[C@@H]1c1cnc(-c3ccccc3)nc1C2 | u
C#CCN(C)C[C@H]1CN2CC[C@H]1C[C@@H]2CNS(=O)(=O)c1cccs1 | 5%[70.6 µM]
CCn1cc(CN2CCN(C(=O)Cc3ccsc3)CC2)ccc1=O | 1%
CCNC(=O)NC[C@H]1C[C@@H]2CCN1C[C@@H]2c1cc(-c2cccs2)nn1C | 1%[70.6 µM]
Cc1ccccc1-c1ccc2n(c1=O)C[C@H]1C[C@@H]2CN(C(=O)c2cccs2)C1 | 5%[70.6 µM]
Cn1nc(-c2cccs2)cc1[C@H]1CN2CC[C@H]1C[C@@H]2COC(=O)Nc1ccccc1 | -16%[70.6 µM]

More structures follow.
Compound | NPR1 antag
O=C(NC[C@H]1C[C@@H]2CCN1C[C@@H]2CN1CCN(c2ncccn2)CC1)c1ccc(C(F)(F)F)cc1 | 0%
O=C(c1ccco1)N1C[C@@H]2C[C@H](C1)c1c(-c3cccnc3)ccc(=O)n1C2 | 3%[70.6 µM]
C#C[C@H]1CN2CC[C@H]1C[C@@H]2CNC(=O)Nc1cccc(C#N)c1 | 0%[70.6 µM]
COc1ccccc1NC(=O)Nc1ccc2n(c1=O)C[C@H]1C[C@@H]2CN(C2CCOCC2)C1 | -12%
COc1ccc(C(=O)N2CCC3(CC2)c2nccn2-c2ccccc2CN3C)cc1OC | 6%
COc1ccc(S(=O)(=O)N2[C@H]3CC[C@@H]2c2cnc(-c4ccccc4)nc2C3)cc1 | 3%
c1ccc(CN2C[C@H]3CCNC[C@H]32)cc1 | 4%
COc1cc2c(cc1OCC1CCCC1)N([S+](=O)([O-])c1ccc(Oc3ccccc3)cc1)CC21CCN(CC(=O)O)CC1 | 0%
C=C[C@H]1CN2CC[C@H]1C[C@@H]2CNC(=O)Nc1cccc(C(F)(F)F)c1 | -1%[70.6 µM]
CC(C)N1C[C@@H]2OCC(=O)N(Cc3ccccn3)[C@@H]2C1 | -2%[70.6 µM]
O=C(NCc1ccccc1)[C@H]1CN2CCC1C[C@@H]2Cn1cc(C2(O)CCCCC2)nn1 (some centres not stated) | 4%[70.6 µM]
O=C(Nc1nccs1)[C@H]1CN2CC[C@H]1C[C@@H]2Cn1cc(-c2ccccc2)nn1 | 0%[70.6 µM]
C=CCN(C)C[C@H]1CN2CC[C@H]1C[C@@H]2CNS(C)(=O)=O | 0%[70.6 µM]
CC[C@H]1CN2CC[C@H]1C[C@@H]2CNC(=O)c1ccc2ccccc2c1 | -12%[70.6 µM]
Cn1nc2n(c1=O)CCC(NC(=O)c1nn(C)c3ccccc13)CC2 (configuration not stated) | 2%
C#C[C@H]1CN2CC[C@H]1C[C@@H]2CNCc1ccc(C(F)(F)F)cc1 | 0%[70.6 µM]
CC(C)N1C[C@@H]2OCC(=O)N(Cc3cccnc3)[C@@H]2C1 | 2%[70.6 µM]

Compound activity (PubChem)
